Bioassay records as filed in PubChem.
Polio RdRp inh: poliovirus RdRp elongation inhibitors, primary screen, biochemical, fluorescence polarization, total intensity; Genome polyprotein (Poliovirus type 1 (strain Mahoney)), P03300; poliovirus polymerase elongation; active compounds read low; % elongation, % (compound at 16.7 µg/mL); actives 0.66% (n = 150,000); in the data active means % elongation below about 90%; further: some results filed as inactive read as strong as hits
Target sequence (P03300 1749-2209 limits assumed): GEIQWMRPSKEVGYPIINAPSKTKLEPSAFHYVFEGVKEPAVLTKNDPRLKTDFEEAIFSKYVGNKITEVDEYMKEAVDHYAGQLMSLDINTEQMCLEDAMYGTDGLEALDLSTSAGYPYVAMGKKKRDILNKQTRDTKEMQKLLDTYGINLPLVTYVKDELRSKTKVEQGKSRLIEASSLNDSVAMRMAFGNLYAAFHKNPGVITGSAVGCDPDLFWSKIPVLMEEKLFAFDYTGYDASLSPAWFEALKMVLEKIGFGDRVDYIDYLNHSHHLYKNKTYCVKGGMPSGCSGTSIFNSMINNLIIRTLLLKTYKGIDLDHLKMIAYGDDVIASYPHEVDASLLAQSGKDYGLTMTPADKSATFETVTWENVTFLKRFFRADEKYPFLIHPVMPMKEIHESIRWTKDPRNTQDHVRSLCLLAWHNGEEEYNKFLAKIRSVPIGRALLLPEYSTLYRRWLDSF
Mtb MenB inh: M. tuberculosis MenB inhibitors, primary screen, biochemical, absorbance. inhibition, %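 (about 12 µg/mL by stock and volumes)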. actives 0.43% (n = 100,000). 1,4-dihydroxy-2-naphthoyl-CoA synthase (Mycobacterium tuberculosis (strain ATCC 25618 / …. MenB enzyme assay, absorbance read-out; some hits fall short of the stated cut;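 active means mean of two replicates above 30%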;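 further: 0% = no compound and 100% = wells with inactive enzyme; the first replicate is given; strong numbers were not always called active; inactives centre near -10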
Target sequence (P9WNP5 whole entry, looked up): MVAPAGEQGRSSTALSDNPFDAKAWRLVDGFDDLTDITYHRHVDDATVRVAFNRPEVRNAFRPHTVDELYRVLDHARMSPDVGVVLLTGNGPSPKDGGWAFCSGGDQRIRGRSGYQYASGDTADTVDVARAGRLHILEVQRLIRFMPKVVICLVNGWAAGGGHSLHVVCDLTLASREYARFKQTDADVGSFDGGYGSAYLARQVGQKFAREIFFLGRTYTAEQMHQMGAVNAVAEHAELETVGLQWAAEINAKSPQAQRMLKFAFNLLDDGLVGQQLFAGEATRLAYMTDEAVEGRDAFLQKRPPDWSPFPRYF
MbtI inh: MbtI salicylate synthase inhibitors, primary screen, biochemical, fluorescence intensity. purified MbtI enzyme, fluorescence intensity read-out. inhibition, %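 (about 17 µg/mL by stock and volumes)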. actives 0.89% (n = 100,000);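 active means above 50% in both replicates, above 80% if mildly self-fluorescent; inactive means the rest, strongly fluorescent compounds included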;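 further: 0% = mean of negative and 100% = mean of positive controls; one replicate is shown; some compounds called inactive have numbers as strong as hits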
Polio RdRp inh intensity: second read-out of Polio RdRp inh, no call of its own (marks repeat the call); % elongation; measured here: total intensity read-out; formula for this scale not given here;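 total fluorescence in place of polarization; lower means less elongation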
An asterisk follows results filed as active; / = not tested or not shown; & = joins results of further samples.

The line under a structure holds: Mtb MenB inh, MbtI inh, Polio RdRp inh intensity, Polio RdRp inh
> O=C(CN1CCOCC1)n1c2ccccc2c2ccccc21
  -4.2, -60.4, 102.0, 105.0
> COc1ccc2c(c1)OC(c1ccccc1)(C(F)(F)F)NC2=O (stereo not given)
  /, -2.2, 106.0, 101.0
> CCc1ccc(NCN2C(=O)C3=C(CCCC3)C2=O)cc1
  -22.0, 7.3, 96.0, 102.0
> COc1ccc(C)cc1NC(=O)c1cc2ccccc2o1
  9.3, 5.1, 101.0, 103.0
> Cc1ccc(N2Cc3ccccc3C2=N)cc1Cl
  /, -3.8, 104.0, 101.0
> CC(C)c1cc(NC(=O)COC(=O)c2ccccc2SCC(=O)N2CCCC2)on1
  -14.1, 1.1, 101.0, 101.0
> Cc1cccc(C(=O)Nc2nc3c(s2)C(=O)CC(C)(C)C3)c1
  -1.1, -208.7, 104.0, 101.0
> CC1(C)C=Cc2c(ccc3ccc(=O)oc23)O1
  11.6, 99.7, 103.0, 100.0
> COC(=O)c1ccc(COc2ccccc2OC)o1
  6.8, -202.9, 97.0, 102.0
> CC(=O)N1CCc2cc(NC(=S)NC3CCCCCC3)ccc21
  -14.2, -9.8, 113.0, 108.0
> CCc1cccc2c(C(=O)C(Sc3nnc(CN4CCCC4=O)o3)c3ccccc3)c[nH]c12 (stereo not given)
  -15.0, -15.1, 102.0, 102.0
> Cn1c(=O)oc2cc(S(=O)(=O)N3CCCC(C(=O)NN4CCOCC4)C3)ccc21 (stereo not given)
  -11.1, -3.8, 97.0, 101.0
> COc1ccc(CNCC2COc3ccccc3O2)cc1OC (stereo not given)
  4.2, /, 107.0, 102.0
> O=c1nc2c(-c3ccc(Cl)cc3)n[nH]n2c2ccccc12
  9.7, -27.6, 105.0, 104.0
> CCc1ccc(NC(=O)Cn2ncc3c2-c2ccccc2OC3)cc1
  -32.8, 3.5, 109.0, 105.0
> O=C(CC1CCCCC1)c1c(O)c2ccccc2oc1=O
  -25.7, -7.4, 108.0, 102.0
> Cn1ccnc1Sc1cnc(SCc2ccc(Cl)cc2)nc1-c1ccccc1
  -23.4, 3.9, 107.0, 103.0
> Cc1ccc(N2CC(NC(=O)Nc3ccc(C(N)=O)cc3)CC2=O)cc1C (stereo not given)
  1.1, -0.4, 104.0, 99.0
> OC12CC3CC(C1)C1(NCCS1)C(C3)C2 (stereo not given)
  -169.4, 39.3, 101.0, 100.0
> CC1CCCCC1NC(=O)Cn1ncc2c(=O)oc3ccccc3c21 (stereo not given)
  -0.1, 0.9, 107.0, 99.0
> O=C(CSc1nc2c(c(=O)n1Cc1ccccc1)SCC2)NCc1ccco1
  -19.5, -0.8, 102.0, 104.0
> CC(C#N)(NC(=O)COc1ccc(C#N)cc1)C1CC1 (stereo not given)
  4.5, -5.3, 104.0, 98.0
> CCOc1ccc(NC(=O)c2ccc(N3C(=O)NC4CC3(C)Oc3ccccc34)cc2)cc1 (stereo not given)
  -19.4, 13.9, 101.0, 103.0
> O=C(Nc1ccc(F)cc1F)c1nc(-c2cccc(F)c2)n2c1CCCCC2
  -14.4, -5.8, 103.0, 103.0
> Cc1cc(C)n2nc(C)cc2n1
  -2.7, -3.3, 104.0, 104.0
> O=C(c1ccc(CNS(=O)(=O)c2ccc(Br)cc2)cc1)N1CCc2ccccc21
  -12.0, 3.5, 102.0, 100.0
> COc1ccc(CN2CNc3nc4ccccc4n3C2)cc1
  13.5, 10.5, 100.0, 104.0
> CCC(C)C(=O)Nc1nccs1 (stereo not given)
  -2.9, /, 111.0, 106.0
> S=C(Nc1ccc(Cl)cc1)N1CCSC1c1ccc(Br)cc1 (stereo not given)
  -50.4, -3.8, 105.0, 102.0
> COc1ccc2c(COC(=O)c3c(-c4ccccc4)noc3C)cc(=O)oc2c1
  -21.8, 52.0, 107.0, 109.0
> CCSc1nnc(SC(C)C(=O)Nc2ccc(C#N)cc2)s1 (stereo not given)
  3.5, 10.9, 102.0, 96.0
> COc1ccccc1OCc1cccc(C(=O)N2CCCCCC2)c1
  -18.6, 6.2, 102.0, 102.0
> c1ccc(OCc2nnc3n2CCCCC3)cc1
  -18.4, -3.1, 102.0, 102.0
> CC(C(=O)Nc1ccc2c(c1)OCCO2)n1sc2ccccc2c1=O (stereo not given)
  8.6, -13.6, 102.0, 100.0
> Nc1c(-c2ccccc2)cnn1-c1ccc(C(=O)O)cc1
  4.7, -5.7, 101.0, 101.0
> CCN(CC)S(=O)(=O)c1ccc(NC(=O)CCn2c(=O)oc3ccccc32)cc1
  -10.6, 8.4, 101.0, 101.0
> COc1ccccc1OCc1nc(=S)[nH][nH]1
  -26.7, 9.8, 106.0, 100.0
> O=C(CCN1CCc2ccccc2C(O)(c2ccccc2)C1)c1ccc2c(c1)OCCO2 (stereo not given)
  -7.0, 18.0, 104.0, 103.0
> COc1ccc(C(=O)Cn2nnc(-c3ccccc3)n2)cc1
  -25.7, -22.4, 102.0, 100.0
> CCOC(=O)C1CCCCN1Cc1ccc(Br)cc1 (stereo not given)
  -15.0, -17.3, 103.0, 100.0
> CCN(CC)C(=O)c1ccc(NC(=S)NC2CC2)cc1
  -23.7, 5.5, 107.0, 105.0
> O=C(Cc1c(O)c2ccccc2[nH]c1=O)NCc1ccccc1Cl
  -21.4, -0.2, 100.0, 103.0
> Cc1noc(/C=C/c2cccs2)c1S(=O)(=O)N1CCC(C(=O)N2CCCCC2)CC1
  6.9, 20.4, 96.0, 100.0
> CSc1nc2ccc(N)cc2s1
  /, 8.5, 100.0, 100.0
> O=[N+]([O-])c1cc([As](=O)(O)O)ccc1O
  7.8&-7.2, 5.9&-9.0, 97.0&100.0, 100.0&100.0
> Cc1nc2cc(NC(=O)c3ccc(N4C(=O)CCC4=O)cc3)ccc2s1
  -13.0, 15.5, 105.0, 102.0
> Cc1ccc(NC(=O)C2CC(=O)n3cnnc3N2)cc1Cl (stereo not given)
  29.3, 2.4, 102.0, 101.0
> O=C(NC1CCCCC1)NC1CCN(CC(=O)c2ccc(Cl)cc2)CC1
  -49.5, -4.7, 102.0, 104.0
> CS(=O)(=O)c1cccc(S(=O)(=O)N2CCSCC2)c1
  11.5, -4.6, 101.0, 104.0
> Cc1ccc2nc(CSc3nnc(-c4ccccc4)o3)cc(=O)n2c1
  -36.2, -8.6, /, /

Arranged by heavy-atom count (ascending): part of the list above
The line under a structure holds: Mtb MenB inh, MbtI inh, Polio RdRp inh intensity, Polio RdRp inh
> CCN(CC)C(=O)c1ccc(NC(=S)NC2CC2)cc1
  -23.7, 5.5, 107.0, 105.0
> O=C(Cc1c(O)c2ccccc2[nH]c1=O)NCc1ccccc1Cl
  -21.4, -0.2, 100.0, 103.0
> Cc1ccc2nc(CSc3nnc(-c4ccccc4)o3)cc(=O)n2c1
  -36.2, -8.6, /, /
> O=C(NC1CCCCC1)NC1CCN(CC(=O)c2ccc(Cl)cc2)CC1
  -49.5, -4.7, 102.0, 104.0

Other entries.
The line under a structure holds: Mtb MenB inh, MbtI inh, Polio RdRp inh intensity, Polio RdRp inh
> CC1CCCCN1C(=O)Cn1cc(C(=O)C2CC2)c2ccccc21 (stereo not given)
  28.1, 23.8, 103.0, 99.0
> Cc1ccc(C=NN2CCN(Cc3ccccc3)CC2)cc1
  -11.6, 13.6, 90.0, 100.0
> CCOC(=O)C1CCN(c2c(C(=O)c3ccccc3)cnc3ccc(OC)cc23)CC1
  -33.1, 1.9, 108.0, 96.0
> Cc1ccccc1-n1nc2c(c1NC(=O)/C=C\c1ccc3c(c1)OCO3)CS(=O)(=O)C2
  -30.8, -13.9, 104.0, 101.0
> COc1ccc(N2CC(NC(=O)N(Cc3ccccc3)C(C)C)CC2=O)cc1 (stereo not given)
  10.5, 0.1, 104.0, 98.0
> CCCn1c(N)c(C(=O)CSc2nc3ccccc3c(=O)n2CCC)c(=O)[nH]c1=O
  -18.4, 1.6, 104.0, 100.0
> O=C1Cc2cc(S(=O)(=O)N3CCCCC3)ccc2N1
  -4.8, -14.3, 107.0, 104.0
> O=C(COC(=O)c1ccccc1Br)Nc1ccccc1Cl
  /, -6.8, 110.0, 105.0
> Cc1cc(F)ccc1NCC(=O)Nc1ccc2c(c1)OCCO2
  5.3, -0.8, /, /
> Cn1cnc2onc(C(=O)NC3CCCCC3)c2c1=O
  -12.4, 1.1, 102.0, 100.0
> CCOc1ccc(C(=O)OCC(=O)N2CCCC2)cc1
  /, -5.8, 106.0, 104.0
> O=c1c2c([nH]c3ccccc13)C(=C1CCCC1)CC2
  -34.3, 57.2, 100.0, 102.0
> OC(C#CCN1CCCC1)c1ccccc1 (stereo not given)
  -6.8, /, 104.0, 102.0
> Cc1cc(C(F)(F)F)nn1Cc1ccc(C(=O)Nc2ncc(Br)s2)o1
  -33.7, 66.6, 100.0, 102.0
> COc1ccccc1Nc1nn(CN2CCCCC2C)c(=S)s1 (stereo not given)
  -28.1, 100.0*, 105.0, 94.0
> CC(=O)NCC12CC3CC(CC(C3)C1)C2
  -42.3, -13.0, 100.0, 101.0
> Cn1c(=O)c2[nH]c(NC3CCCC3)nc2n(C)c1=O
  -18.8, 5.2, 107.0, 103.0
> COCc1cc(C)nc(SCC(=O)NC2C3CC4CC(C3)CC2C4)c1C#N (stereo not given)
  2.8, -0.2, 102.0, 104.0
> CNc1nc(C)c(C(=O)OCc2ccccc2)s1
  -15.2, -8.3, 98.0, 101.0
> COC(=O)Nc1nccs1
  13.7, /, 102.0, 102.0
> Cc1ccc2[nH]c(=O)c(C3=NN(C(=O)CCC(=O)O)C(c4ccccc4)C3)c(-c3ccccc3)c2c1 (stereo not given)
  -16.8, -3.8, 105.0, 102.0
> Cn1nc(C(=O)N2CCc3ccccc32)c2c1-c1ccccc1S(=O)(=O)C2
  -13.7, 63.1, 97.0, 99.0
> O=C(CC12CC3CC(CC(C3)C1)C2)N1CCCOC1
  -38.1, -0.3, 102.0, 103.0
> Nc1ccccc1S(N)(=O)=O
  -9.0, -16.8, 102.0, 100.0
> Cc1noc(Nc2ccc(NC(=O)Cc3cccs3)cc2)c1C
  -34.8, 5.9, 88.0, 98.0
> CNC(=O)Cn1nc(C)c(S(=O)(=O)N2CCOCC2)c1C
  -21.4, -14.1, 103.0, 104.0
> C#CCSc1nc2cc(Cl)ccc2o1
  -29.4, -5.2, 92.0, 100.0
> C=CC(=O)NC(=O)NC12CC3CC(CC(C3)C1)C2
  -15.6, 9.9, 108.0, 103.0
> O=C(Cc1coc2cc3c(cc12)CCC3)OCC(=O)N1CCCC1=O
  -29.4, -2.6, 94.0, 101.0
> CN1CCN(c2nc(C34CC5CC(CC(C5)C3)C4)cs2)CC1
  -15.0, 17.1, 104.0, 99.0
> Cc1nnc(Nc2c(C)n(C)n(-c3ccccc3)c2=O)[nH]c1=O
  0.4, -4.0, 101.0, 101.0
> Cc1ccc(OCCSc2nnc(N)s2)cc1
  -15.3, 6.8, 99.0, 102.0
> O=C(NC(Cc1cc(=O)[nH]c2ccccc12)C(=O)O)c1ccc(Cl)cc1 (stereo not given)
  -2.3, -14.1, 101.0, 100.0
> O=C(O)/C=C/C(=O)Nc1ccc(Br)c(Cl)c1
  -6.3, 9.0, 98.0, 100.0
> CC(C)(C)C(=O)/C=C1\SCC(=O)N1Cc1ccc(C#N)cc1
  -43.0, 10.6, 111.0, 109.0
> CCCCN(CC)c1nc(N)c2c(N)nc(SCC(=O)O)cc2c1C#N
  -21.5, -122.1, 98.0, 103.0
> CCOc1ccc(S(=O)(=O)NCc2ccc3c(c2)OCO3)cc1
  -15.7, -12.8, 104.0, 103.0
> CCOC(=O)N1CCC(NC(=O)c2cc(C(=O)NCc3ccc(F)cc3)ccc2CO)CC1
  -3.8, 0.8, 98.0, 101.0
> CC(Sc1nnnn1-c1ccc(O)cc1)C(=O)c1ccccc1 (stereo not given)
  -4.4, 1.9, 106.0, 101.0
> O=C(Cn1ccc2cc(S(=O)(=O)N3CCCC3)ccc21)NCc1ccccc1
  -4.8, -24.1, 103.0, 104.0
> O=C(COc1ccccc1C(=O)O)Nc1cccc2ccccc12
  /, -8.8, 102.0, 100.0
> Cc1cc(C(=O)OCc2cc(Cl)cc3c2OCOC3)on1
  11.4, 5.7, 97.0, 106.0
> Cc1cc(OC(C)C)nc(-c2ccccc2O)n1
  -53.1, -14.7, 104.0, 102.0
> COC(=O)c1ccc(Oc2nc(Nc3ccccc3F)nc(N3CCCCC3C)n2)cc1 (stereo not given)
  -22.4, -85.3, 103.0, 101.0
> Cc1cccc(CCNC(=O)c2cc3c(=O)n(C)c4ccccc4c3s2)c1
  -19.5, 7.5, 103.0, 102.0
> Cc1ccc2oc(=O)c(/C=C(\O)c3ccco3)nc2c1
  -2.8, -5.8, 104.0, 104.0
> Cc1ccc(-c2nnc(N3CCOCC3)c3ccccc23)cc1S(=O)(=O)N1CCN(C)CC1
  -0.6, 2.2, 101.0, 101.0
> CCn1nc(C)cc1-c1n[nH]c(=S)n1-c1ccccc1
  0.7, 29.6, 103.0, 102.0
> COC(=O)c1ccccc1NC(=O)CN1Cc2ccccc2C1=O
  -5.5, 7.1, 102.0, 102.0
> Cc1nn(Cc2ccccc2Cl)c2sc(C(=O)NC(C)(C)C)cc12
  -1.7, -13.1, 106.0, 105.0
> Cc1nc2c(o1)N(c1ccccc1)C(N)=C(C#N)C2c1c(Cl)nn(-c2ccccc2)c1C (stereo not given)
  -21.2, /, 102.0, 105.0
> Cc1cc(C(=O)O)ccc1-n1c(C)ccc1C
  0.2, 4.2, 105.0, 101.0
